Insulin prom inh – TRM-6 insulin promoter activity inhibition; TRM-6 cells (human fetal islet line), insulin promoter-eGFP reporter, imaging; reporter expression induced with tamoxifen; inhibition, % at 2 µM; 130,000 compounds, 0.9% hits; AID 1273;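 active means inhibition above the mean plus 3 SD, with well images judged a real hit on visual review, cut at about 60% in these data, passing the limit was not always enough; inconclusive means inhibition over the cutoff but images rejected on review; inactive means inhibition not above the cutoff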
GALR2 agonist – activates the human galanin receptor 2; AID 803; activation, %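 (tested at 5 µM)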; 140,000 compounds, 0.48% hits; GALR2-expressing cells, agonist activation read-out;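 active means above mean plus 3 SD of all compounds, about 5% in these data, not always enough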;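 further: 0% = vehicle buffer wells and 100% = reference agonist at full effect; tested in CHO reporter cells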
Target sequence (O43603 whole entry, looked up): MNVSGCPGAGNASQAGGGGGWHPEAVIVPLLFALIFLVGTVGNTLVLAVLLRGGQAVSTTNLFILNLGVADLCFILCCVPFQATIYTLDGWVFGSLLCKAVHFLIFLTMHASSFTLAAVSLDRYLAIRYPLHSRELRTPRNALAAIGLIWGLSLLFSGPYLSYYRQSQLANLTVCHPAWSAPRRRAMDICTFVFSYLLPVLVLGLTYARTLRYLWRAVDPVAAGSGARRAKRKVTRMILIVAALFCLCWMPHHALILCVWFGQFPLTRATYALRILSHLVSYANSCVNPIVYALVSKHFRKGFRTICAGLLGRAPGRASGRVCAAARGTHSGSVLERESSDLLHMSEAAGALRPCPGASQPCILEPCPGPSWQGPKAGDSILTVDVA
PKD1 kinase inh – blocks activity of human protein kinase D1; Q15139; PKD1 kinase fluorescence polarization assay; 200,000 compounds, 0.056% hits; inhibition, %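 (about 10 µM by stock and volumes)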;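 active means inhibition of 50% or more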;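 further: controls were vehicle for no effect and a reference inhibitor for full effect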
RGS16-Gao HTS – regulators of human RGS16-Galphao interaction. O15492+P09471. binding response (% of control), % at 10 µM. bead-based flow cytometry RGS16-Galphao binding, fluorescence; actives lie on both sides. 220,000 compounds, 0.38% hits;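 active means below 25% or above 175%, edge rows of some plates excepted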;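 further: Galphao activated by GDP with aluminum fluoride before binding; 100% = wells without compound and 0% = beads without RGS; some results beyond the cut were filed as inactive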
Target sequence (O15492 whole entry, looked up): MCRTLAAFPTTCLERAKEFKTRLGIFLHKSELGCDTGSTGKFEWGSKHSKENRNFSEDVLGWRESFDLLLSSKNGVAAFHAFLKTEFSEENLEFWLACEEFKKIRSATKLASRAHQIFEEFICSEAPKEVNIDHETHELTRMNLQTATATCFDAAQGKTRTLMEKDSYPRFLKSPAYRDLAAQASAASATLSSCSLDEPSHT
Target sequence (P09471 whole entry, looked up): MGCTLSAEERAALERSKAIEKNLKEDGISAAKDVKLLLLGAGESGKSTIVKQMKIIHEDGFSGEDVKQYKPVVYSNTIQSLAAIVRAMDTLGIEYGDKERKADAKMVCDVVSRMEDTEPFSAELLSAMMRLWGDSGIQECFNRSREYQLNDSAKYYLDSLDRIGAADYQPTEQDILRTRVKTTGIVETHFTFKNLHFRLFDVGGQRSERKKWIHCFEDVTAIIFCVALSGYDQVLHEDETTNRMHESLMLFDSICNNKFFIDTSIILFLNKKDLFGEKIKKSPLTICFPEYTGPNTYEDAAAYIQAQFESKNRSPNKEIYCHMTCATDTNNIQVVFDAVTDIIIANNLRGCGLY
HSV replic up – HSV replication enhancement; HSV replication augmentation in cells, fold increase; maximum fold increase; 220,000 compounds, 0.005% hits;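 active means peak rise of 1.5-fold or more in the series; inconclusive means self-fluorescent or not available for retest; tested in PC3 cells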;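 further: first round at 10 µM; read as green reporter fluorescence; hits show the peak of a series up to 25 µM; 1 = signal of infected wells without compound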
Insulin prom inh cell count – further read-out of Insulin prom inh, marked with its call; normalized cell count, %; measured here: cell count, toxicity; reference of the scale not given here;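 cells exposed to compound for 48 h; stained nuclei by imaging scaled within each plate; lower means fewer cells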
HSV replic up primary fold – further read-out of HSV replic up, marked with its call; fold increase; compound at 10 µM; measured here: primary screen fold increase 10 uM; tested in PC3 cells;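 GFP signal in the first replicate; 1 = infected wells without compound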
* marks the source's active call; other numbers are inactive results; i = inactive; ? = inconclusive; nt = not tested or not shown.

Sequence of screens – Insulin prom inh	Insulin prom inh cell count	GALR2 agonist	PKD1 kinase inh	RGS16-Gao HTS	HSV replic up	HSV replic up primary fold
Cc1ccc(Cl)cc1NC(=O)COC(=O)c1ccc(COc2ccc3c(C)cc(=O)oc3c2)cc1
 : 5	74	-0.5	-2	101	i	1.1
Cc1c(NC(=S)NC(=O)Cc2ccccc2)cccc1C(=O)O
 : -90	127	-0.8	-20	101	i	0.82
C#CCOCCOCCOCCNc1nc(N2CCN(C(=O)[C@H]([C@@H](C)O)n3cc(CCCCN)nn3)CC2)nc(N2CCN(C(=O)[C@H](Cc3ccc(O)cc3)n3cc(CCO)nn3)CC2)n1
 : -9	55	-1.0	-15	70	i	1.1
CCN(CC)S(=O)(=O)c1ccc(NC(=O)COC(=O)c2ccc(-n3nc(C)cc3C)cc2)cc1
 : 21	109	-2.0	-2	100	i	0.95
COc1ccc(CC(=O)NCc2n[nH]c(=S)n2C)cc1
 : nt	nt	nt	-7	43	i	0.93
Cc1cc(Br)ccc1SCC(=O)OCC(=O)N1CCN(C(=O)c2ccco2)CC1
 : nt	nt	-1.6	-2	96	i	0.93
O=C(Nn1cnnc1)c1ccc(Br)s1
 : 25	114	-0.7	7	62	i	0.96
Cc1ccc(NC(=O)COC(=O)c2ccc3c(c2)OCCO3)cc1S(=O)(=O)N1CCOCC1
 : 50	124	nt	0	101	i	0.97
CC(=O)Nc1cccc(-n2nnc(SCC(=O)Nc3ccc(F)c(Cl)c3)n2)c1
 : nt	nt	nt	nt	106	i	1.1
Cc1cccc(Nc2nc(N3CCN(C)CC3)nc(N)c2[N+](=O)[O-])c1
 : nt	nt	0.6	-3	94	i	0.74
CN(CC(=O)NCCN1CCCCCC1)S(=O)(=O)c1cccc2nsnc12
 : nt	nt	-2.9	-8	100	i	0.67
COc1cccc(C(=O)Nc2ccc3nc(N4CCOCC4)cc(C)c3c2)c1
 : nt	nt	2.3	8	101	i	0.81
COCCCN1C(=O)C(=O)/C(=C(/O)c2ccc(OC)cc2C)C1c1cccnc1 (centres undefined)
 : 64	66	-1.5	5	97	i	0.74
COCCOC(=O)C1=C(N)Oc2c(oc(CO)cc2=O)C1c1ccccc1F (centres undefined)
 : -38	75	-0.8	-7	97	i	0.98
O=C(NCc1cccnc1)C(=O)NCC(c1ccco1)N1CCOCC1 (centres undefined)
 : nt	nt	nt	-2	101	i	1.1
Cc1oc(/N=C/c2ccc(Cl)cc2)c(C#N)c1C
 : nt	nt	-0.7	-3	101	i	1.2
O=C(O)c1ccc(C(=O)C(=O)c2ccccc2)cc1
 : nt	nt	nt	nt	105	i	1
C=C(C)C(=O)Nc1cccc(C2=NOC3(C2)C[C@@H](C(N)=O)N(C(=O)c2ccc(Cl)cc2)C3)c1 (some centres undefined)
 : nt	nt	nt	nt	108	i	1
COc1ccc2c(c1)c(=O)oc1cc(O)ccc12
 : nt	nt	nt	-9	105	i	0.9
CN1CCN(NC(=O)c2ccc(S(=O)(=O)N3CC4(C)CC3CC(C)(C)C4)cc2)CC1 (centres undefined)
 : nt	nt	nt	nt	110	i	1
COCCn1c(=O)[nH]c2cc(C(=O)NC3CCCCCC3)ccc2c1=O
 : nt	nt	-1.8	-5	66	i	0.94
O=C(/C=C/c1ccc(Cl)c([N+](=O)[O-])c1)c1cccnc1
 : 39	101	nt	-2	98	i	1.2
Fc1cccc(NC(=S)Nc2cccnc2)c1
 : 37	106	nt	1	100	i	0.96
C=CCSC1=N/C(=C\c2ccsc2)C(=O)S1
 : nt	nt	-3.3	-2	103	i	1
O=C1c2cccc3cccc(c23)C(=O)N1OS(=O)(=O)c1ccc(Br)cc1
 : 16	105	-1.4	4	105	i	1.1
O=C(Cc1ccc(O)cc1)NCCNC(=S)NCc1ccccc1
 : nt	nt	nt	nt	100	i	0.87
COc1ccccc1C/C(N)=N/O
 : 0	84	-0.7	0	111	i	0.98
Cc1cc(CNC(=O)COc2ccccc2F)c2ccccc2n1
 : 11	166	nt	-1	102	i	1
Cc1[nH]c2ccccc2c1C(=O)C(=O)N1CCN(C(=O)c2ccco2)CC1
 : 18	97	nt	0	111	i	1
O=C(CSc1nnc(COc2ccc(Cl)cc2)o1)N1c2ccccc2CCc2ccccc21
 : -17	83	-3.0	-8	101	i	1.1
CCN1C(=O)c2cccc3c(S(=O)(=O)Nc4ccncc4)ccc1c23
 : 26	91	-0.3	1	72	i	0.91
O=C(Cc1ccc(Cl)cc1)Nc1ccc(N2CCCC2)cc1
 : -12	122	1.6	1	97	i	0.97
N#C/C(=N\Nc1ccccc1)C(=N)N1CCOCC1
 : -33	108	0.1	-7	103	i	0.99
Cc1ccc(-c2nc(=S)c3c(n2Cc2ccco2)CCCC3)cc1
 : 28	93	-1.4	3	100	i	0.85
O=C(CSc1nc2ccc([N+](=O)[O-])cc2[nH]1)NC1CCCCC1
 : 19	73	-1.0	-3	94	i	0.95
COc1cccc(C2C3=C(N=c4s/c(=C\c5ccc(O)cc5)c(=O)n42)c2ccccc2CC3)c1OC (centres undefined)
 : 40	105	-1.6	-2	5	i	1
NC1=NC2(CCCCC2)n2c(nc3ccccc32)N1
 : -85	50	-3.0	-6	93	i	1
COc1ccccc1NC(=O)c1oc2ccccc2c1NC(=O)c1ccco1
 : 9	89	-0.4	3	102	i	0.94
COc1ccc(S(=O)(=O)N2CCN(C(=O)c3cccs3)CC2)cc1
 : -23	84	-1.1	-5	99	i	0.98
CCn1ccnc1CN(C)C(=O)CCc1nnc(CCCc2ccccc2)o1
 : nt	nt	nt	-2	96	i	1
COc1cc(C(=O)NCCC(=O)NCCN2CCCCCC2)cc(OC)c1OC
 : 0	79	-0.9	-3	93	i	1.1
COc1ccc(C(C(O)C(=O)c2c[nH]c3ccccc23)N2CCN(c3ccc(OC)cc3)CC2)cc1 (centres undefined)
 : 46	89	-0.8	3	106	i	0.84
O=C(NC(Cc1ccccc1)C(=O)Oc1ccc2c(C(F)(F)F)cc(=O)oc2c1)OCc1ccccc1 (centres undefined)
 : -46	62	-0.3	8	112	?	nt
COc1ccccc1OCCCCOc1ccccc1C(C)=O
 : -13	137	-3.0	3	6.0*	i	0.99
O=C(COc1ccccc1Cc1ccccc1)NCCCN1CCOCC1
 : nt	nt	nt	nt	104	i	0.95
Brc1ccc2c(c1)C(c1cccs1)=NNC(c1cccnc1)=N2
 : -29	161	0.8	16	104	i	0.88
CCOC(=O)CSC1=C(C#N)C(c2ccc(F)cc2)C(C(C)=O)=C(C)N1 (centres undefined)
 : nt	nt	0.3	-12	100	nt	nt
Cc1cc(C)n(C(=O)Cc2cn3ccsc3n2)n1
 : nt	nt	-1.5	-7	98	i	0.98
CC1CC(=O)C2=C(C1)Nc1nc3ccccc3n1C2c1cccnc1 (centres undefined)
 : 17	91	nt	2	111	i	0.94
CCCC(=O)Nc1nc2ccc(NC(=O)c3ccccc3F)cc2s1
 : nt	nt	nt	0	103	i	0.72
CN1CCN(Cc2c(O)ccc3cc(-c4ccccn4)c(=O)oc23)CC1
 : nt	nt	nt	2	103	i	1.1
Nn1c(CSc2nc3ccccc3o2)nnc1CSc1nc2ccccc2o1
 : 32	85	-1.0	-6	117	i	0.85
CSc1nnc(-c2cc3ccccc3cc2O)n1C
 : nt	nt	-2.9	-14	102	i	0.88
CCn1c(SCC(=O)OC(C)C)nnc1-c1ccccc1OC
 : nt	nt	nt	0	106	i	0.92
Cc1cccc(OCC(=O)N/N=C/c2ccccc2C(=O)O)c1
 : 0	49	nt	7	108	i	0.88
Cc1cc2cc(CNS(=O)(=O)c3ccc4ccccc4c3)ccc2n1C
 : nt	nt	-4.1	7	119	i	0.93
CCOc1ccc([N+](=O)[O-])c(N)c1
 : 3	91	-0.8	1	100	i	0.95
CSC1=C(C#N)C(=O)NC(c2ccc(Cl)cc2)S1 (centres undefined)
 : nt	nt	nt	nt	93	i	0.95
CCOC(=O)N1CCN(CCC(=O)Nc2cc([N+](=O)[O-])ccc2OC)CC1
 : -331	40	0.9	-9	104	nt	nt
COc1ccc2nc(NC(=O)C(NS(=O)(=O)c3cccs3)C(C)C)sc2c1 (centres undefined)
 : -69	121	-1.3	-3	90	i	1.1

Reprinted from the part before: 5 compounds, then new ones.
Sequence of screens – Insulin prom inh	Insulin prom inh cell count	GALR2 agonist	PKD1 kinase inh	RGS16-Gao HTS	HSV replic up	HSV replic up primary fold
Cc1cc2cc(CNS(=O)(=O)c3ccc4ccccc4c3)ccc2n1C
 : nt	nt	-4.1	7	119	i	0.93
CCOc1ccc([N+](=O)[O-])c(N)c1
 : 3	91	-0.8	1	100	i	0.95
CSC1=C(C#N)C(=O)NC(c2ccc(Cl)cc2)S1 (centres undefined)
 : nt	nt	nt	nt	93	i	0.95
CCOC(=O)N1CCN(CCC(=O)Nc2cc([N+](=O)[O-])ccc2OC)CC1
 : -331	40	0.9	-9	104	nt	nt
COc1ccc2nc(NC(=O)C(NS(=O)(=O)c3cccs3)C(C)C)sc2c1 (centres undefined)
 : -69	121	-1.3	-3	90	i	1.1
CCOc1ccccc1NC(=S)N(Cc1cc2ccc(C)cc2[nH]c1=O)CC1CCCN1CC (centres undefined)
 : -59	75	-0.7	4	106	i	1.1
CC1CCCN(C(=O)c2cccc(S(=O)(=O)Nc3cc(C(F)(F)F)ccc3Cl)c2)C1 (centres undefined)
 : nt	nt	-1.6	3	120	i	1.1
Nc1c(C(=O)c2ccc(Cl)cc2)oc2ccccc12
 : -24	78	0.8	3	91	i	1.1
CCS(=O)(=O)N1CCN(C(=O)c2cccs2)CC1
 : nt	nt	-1.5	-1	101	i	0.98
O=S(=O)(c1cccc(-c2nnc(SCc3ccc(Cl)cc3)o2)c1)N1CCCCC1
 : nt	nt	-0.1	-9	100	i	0.96
COc1cccc(-c2csc(NC(C)=O)n2)c1
 : -69	65	0.1	-8	98	i	0.86
O=C(NCCCN1CCN(C2CCCCC2)CC1)Nc1ccccc1C(F)(F)F
 : -73	94	-1.7	2	103	i	0.99
COC(=O)C1=C(C)N(CCc2ccccc2)C(=O)/C1=C\c1ccco1
 : -37	117	-1.3	-3	76	i	0.9
CC1(C)CC(=O)CC2(C1)NCC(c1ccccc1Cl)c1c2[nH]c2ccccc12 (centres undefined)
 : nt	nt	nt	-5	104	i	0.78
CCCCC1CCC(c2nc(-c3ccccn3)no2)CC1 (centres undefined)
 : 12	99	-0.4	2	101	i	1
CCc1ccc(N(C(=O)c2csnn2)C(C(=O)NC(C)(C)C)c2cccnc2)cc1 (centres undefined)
 : 4	114	nt	-8	101	i	0.93
CN(C)S(=O)(=O)N1CCC(C(=O)O)(c2ccccc2)CC1
 : 21	165	-1.5	5	86	i	0.81
CCO[C@@H]1OC(C(=O)N2CCN(C)CC2)=C[C@H](C2CCCCC2)[C@H]1CCCO
 : nt	nt	nt	4	98	i	1.1
CC(=O)c1cnc(Nc2ccc(C)cc2)s1
 : nt	nt	nt	2	96	i	0.99
CC(C)CNC(=O)CSc1nc2scc(-c3ccccc3)c2c(=O)[nH]1
 : 2	102	-1.9	-2	106	i	1.1

Ordered by value in PKD1 kinase inh (smallest number first): some entries from above
canonical_smiles,GALR2 agonist,PKD1 kinase inh,RGS16-Gao HTS,HSV replic up,HSV replic up primary fold
COc1cccc(-c2csc(NC(C)=O)n2)c1,0.1,-8,98,i,0.86
CC(C)CNC(=O)CSc1nc2scc(-c3ccccc3)c2c(=O)[nH]1,-1.9,-2,106,i,1.1
CC(=O)c1cnc(Nc2ccc(C)cc2)s1,nt,2,96,i,0.99

Remaining list, next part
Sequence of screens – Insulin prom inh	Insulin prom inh cell count	GALR2 agonist	PKD1 kinase inh	RGS16-Gao HTS	HSV replic up	HSV replic up primary fold
Cc1csc(C(=O)O)c1NC(=O)c1cccc([N+](=O)[O-])c1
 : nt	nt	nt	-5	102	i	1
CCC1(C(=O)OC)NC(c2ccco2)C2C(=O)N(c3ccc(C)cc3)C(=O)C21 (centres undefined)
 : 31	110	-2.7	-8	102	i	0.97
COc1cccc(NC(=O)c2ccc3c(SCC(=O)O)c4c(nc3c2)CCCC4)c1
 : nt	nt	nt	-10	101	i	0.95
Cc1ccc(OCC(=O)NCCc2nc3ccccc3[nH]2)c(C)c1
 : nt	nt	nt	-8	103	i	1
N#CC1=C(N)Oc2n[nH]c(-c3ccc(F)cc3)c2C1c1cccnc1 (centres undefined)
 : -16	71	-0.5	-4	105	nt	nt
CCN(CC)CCNC(=O)c1c(O)c2c([nH]c1=O)CCCC2
 : 21	135	0.2	-2	94	i	0.75
COc1ccc(C/C(C)=N\NC(=O)c2cn(C)c3ccccc23)cc1OC
 : nt	nt	nt	nt	91	i	1.2

Screening results: PubChem, several laboratories
